miR-21 reporter – qHTS Assay for Modulators of miRNAs and/orActivators of miR-21 | HeLa miR-21 FLuc reporter, luciferase, 48 h | Potency, µM (series often up to 38.3 µM), for inactives: at the top dose reporter change, positive = more light | 340,000 tested, under 10 active | AID 2288, 2010; active = well fitted rising curve with a large enough effect; inconclusive = small, poorly fitted or top-dose-only effect; inactive = no such curve, though single readings can be large or run the other way;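 also: % of control where 0% means no effect; miR-21 action dims this reporter so a rising signal means less miR-21 action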
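Compounds were titrated across several concentrations (up to approximately 40 uM) and incubated 48 hours with HeLa miR-21-FLuc reporter cells (miR-21 target sequence downstream of FLuc, endogenous miR-21). Readout was firefly luciferase luminescence after lytic detection reagent.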
Rango dissoc inh – qHTS Assay for Inhibitors of RanGTP induced Rango (Ran-regulated importin-beta cargo) - Importin beta complex dissociation; Snurportin-1 (Homo sapiens) + GTP-binding nuclear protein Ran (Homo sapiens) + Importin …; Biochemical FRET Rango-importin beta, RanGTP-induced dissociation; Potency, µM (series often up to 46.1 µM), for the others: at the top dose activity change, negative = inhibition; 340,000 compounds, 0.071% hits; AID 540253, 2011; active means falling FRET ratio curve, often poorly fitted, with flat reads before Ran was added; inconclusive means other falling curves, or compound fluorescence or quenching; inactive means flat or rising ratio curve;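 also: potency is read from the fitted curve at half-maximal effect; % of control where 0% means no effect; nearly all actives have a fitted effect of over 45% in size; -100% = wells without RanGTP and RCC1; the record marks most hits as doubtful in a second field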
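Recombinant Rango FRET biosensor (EYFP–snurportin 1 IBB–cerulean CFP10) at 0.1 uM premixed with 0.25 uM importin beta in PBS, 1 mM DTT, 0.02% Tween-20, 0.1% BSA. Compound added 5 min; RanGTP-RCC1 (0.6 uM Ran, 2 mM GTP, 0.2 uM RCC1) then triggers release, read at 45 min.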
Rango complex inh – qHTS Assay for Inhibitors of Rango (Ran-regulated importin-beta cargo) - Importin beta complex formation; Importin subunit beta-1 (Homo sapiens), Q14974; Rango CFP/YFP FRET sensor + importin beta, 45 min; Potency, µM (series often up to 92.2 µM), for the others: at the highest dose inhibition of complex formation; 340,000 compounds, 0.031% hits; AID 540263, 2011; active = rising FRET ratio curve, often small or poorly fitted; inconclusive = mostly compound fluorescence or quenching in the first reads; inactive = flat curves in all reads;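 also: potency is read from the fitted curve at half-maximal effect; 0% = DMSO wells and 100% = buffer wells lacking importin beta; nearly all actives have a fitted effect of over 15% in size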
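FRET biosensor Rango (snurportin 1 IBB between N-terminal EYFP and C-terminal Cerulean), 50 nM in PBS/1 mM DTT/0.02% Tween-20/0.1% BSA, preincubated 5 min RT with compound; 0.125 microM importin beta added, 45 min RT, CFP/YFP FRET ratio read.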
GLA inh pH 4.5 – qHTS Assay for Inhibitors of Human alpha-Galactosidase at pH 4.5 | activity change, negative = inhibition, % at 105 µM | purified enzyme, 4-MU-alpha-Gal fluorescence, pH 4.5 | 230,000 tested, under 10 active | Alpha-galactosidase A (Homo sapiens), P06280; inconclusive = small, poorly fitted or top-dose-only inhibition, or a rising curve; inactive = flat fitted curve, though single readings scatter; no compound was filed as active;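 also: 0% = full activity with enzyme and -100% = basal without enzyme; dose as in the result columns while the protocol names 77 µM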
Target sequence (P06280 whole entry, looked up): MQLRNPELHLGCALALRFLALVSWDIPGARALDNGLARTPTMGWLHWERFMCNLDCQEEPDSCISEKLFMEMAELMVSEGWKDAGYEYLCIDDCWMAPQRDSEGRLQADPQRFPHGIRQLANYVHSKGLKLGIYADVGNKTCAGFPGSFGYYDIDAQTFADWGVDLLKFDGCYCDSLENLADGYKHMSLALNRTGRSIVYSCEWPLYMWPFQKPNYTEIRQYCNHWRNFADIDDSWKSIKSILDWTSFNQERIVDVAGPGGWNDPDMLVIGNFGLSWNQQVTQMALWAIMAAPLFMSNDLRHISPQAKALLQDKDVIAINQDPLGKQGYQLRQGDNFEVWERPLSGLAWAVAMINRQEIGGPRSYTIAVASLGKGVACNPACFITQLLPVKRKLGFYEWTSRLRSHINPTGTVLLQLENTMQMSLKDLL
Active calls of the source: *; ? = inconclusive; · = no result given; & = joins results of further samples.

SMILES	miR-21 reporter	Rango dissoc inh	Rango complex inh	GLA inh pH 4.5
COC(=O)c1sccc1NC(=S)N1CCN(c2ccccc2F)CC1	-7%	2%	3.0%	1
Cc1ccc(S(=O)(=O)/N=C(\N)c2ccc(Cl)cc2)cc1	-6%	-3%	-1.4%	·
Clc1ccc(-n2c(SCc3nc4ccccc4[nH]3)nnc2-c2ccncc2)cc1	-5%	-14%	-1.7%	-2
O=C(Cc1cc(=O)[nH][nH]1)N/N=C/c1cccc(Cl)c1Cl	3%&-2%	-11%&13%	?	3&-9
O=C(NC1CC1)C1=C[C@@H](c2c[nH]c3ccccc23)C[C@@H](OCCCCO)O1	-1%	?	?	-3
Cc1ccc(-c2csc(NC3OC(=O)c4ccccc43)n2)cc1 (stereo not drawn)	?	-9%	-0.5%	·
COC(=O)C1=C(C)N(CCc2cc(OC)c(OC)c(OC)c2)C(=O)N[C@H]1c1ccccc1	·	-1%	-0.3%	4
CCN(CC)C(=O)NCc1c(C)cc(C)cc1C	-6%	-9%	0.3%	-9
COc1nc(Oc2ccc(C(=O)OCC(N)=O)cc2)nc(N(C)C)n1	-5%	-1%	-4.1%	0
O=C(CN1CCN(C(=O)CNC(=O)c2ccc3c(c2)OCO3)CC1)Nc1ccccc1Cl	·	11%	-7.2%	·
CN(C)S(=O)(=O)c1cccc(NC(=O)c2n[nH]c(=O)c3ccccc23)c1	-2%	-5%	0.3%	-1
COC(=O)c1sc(NC(=S)NC(=O)c2ccccc2C)nc1C	-40%	2%	?	1
C/C(=N\NC(=O)c1ccc(CN(C)S(=O)(=O)c2ccc(C)cc2)cc1)c1ccc(OC(F)F)cc1	-1%	14%	-3.3%	3
C/C(=N/NC(=S)Nc1ccccc1)c1ccc2c(c1)OCO2	-60%	-5%	-0.9%	-25
Cc1cccc2cc3c(NC(=O)c4ccccn4)nn(C)c3nc12	1%	?	?	-5
O=C(Nc1ccc(C(=O)O)cc1)Nc1cccc2ccccc12	-5%	-1%	-0.6%	·
COc1ccc(-c2nc(C=O)cs2)cc1	-33%	16%	-3.6%	0
CNc1ccc(SC#N)cc1	7%	-3%	-2.7%	1
CCc1nnc(NC(=O)CSc2nc3ccccc3c(=O)n2CCCOC)s1	3%	0%	0.3%	-11
O/C(=C\c1ccc2ccccc2n1)c1ccncc1	·	?	?	·
CCc1cc(=O)[nH]c(SCC(=O)N2CCC(Cc3ccccc3)CC2)n1	·	-1%	1.5%	·
Cc1cc(C(=O)N=Nc2c(O)n(C(C)C)c3ccccc23)n[nH]1	-15%	18%	7.1%	-20
O=C(NNC(=O)c1csc(-c2cccnc2)n1)c1ccccc1	-12%	0%	-0.7%	4
CC(CCc1ccccc1)NC(=O)CN1C(=O)NC2(CCCCC2C)C1=O (stereo not drawn)	·	16%	0.0%	·
O=C(NC(=S)Nc1ccc(S(=O)(=O)Nc2nccs2)cc1)C1CC1	-12%	-22%	-3.5%	-6
CC1CCN(C(=S)c2cccc(O)c2)CC1	2%	20%	-4.5%	7
O=C(COC(=O)C1(c2ccccc2F)CCCC1)N1CCNC1=O	·	-10%	2.6%	·
CN(CC(=O)Nc1ccccc1Cl)C(=O)c1ccc(COc2ccccc2)cc1	·	8%	-3.4%	·
O=C(O)CC1NC(=S)N(c2ccccc2)C1=O (stereo not drawn)	-3%	-10%	-2.3%	4
CCOC(=O)c1cnc2ccc(OCC)cc2c1N1CCN(C)CC1	-42%	2%	5.1%	-4

Structural class, the entries above containing a Cl atom.
SMILES	miR-21 reporter	Rango dissoc inh	Rango complex inh	GLA inh pH 4.5
Cc1ccc(S(=O)(=O)/N=C(\N)c2ccc(Cl)cc2)cc1	-6%	-3%	-1.4%	·
Clc1ccc(-n2c(SCc3nc4ccccc4[nH]3)nnc2-c2ccncc2)cc1	-5%	-14%	-1.7%	-2
O=C(Cc1cc(=O)[nH][nH]1)N/N=C/c1cccc(Cl)c1Cl	3%&-2%	-11%&13%	?	3&-9
O=C(CN1CCN(C(=O)CNC(=O)c2ccc3c(c2)OCO3)CC1)Nc1ccccc1Cl	·	11%	-7.2%	·
CN(CC(=O)Nc1ccccc1Cl)C(=O)c1ccc(COc2ccccc2)cc1	·	8%	-3.4%	·

Following part
SMILES	miR-21 reporter	Rango dissoc inh	Rango complex inh	GLA inh pH 4.5
Cc1ccc(C(=O)COC(=O)[C@@H](NC(=O)c2ccco2)C(C)C)s1	·	-4%	1.7%	·
O=C(COC(=O)c1ccc([N+](=O)[O-])s1)c1ccc[nH]1	·	1%	-2.0%	·
O=C(c1ccc(S(=O)(=O)N2CCCC2)cc1)N1CCN(c2cccc(Cl)c2)CC1	-6%	-7%	0.8%	·
O=C(COc1ccccc1)Nc1ccc2[nH]ncc2c1	-15%	12%	0.4%	·
COc1ccc2nc(-c3ccc(F)cc3)sc2c1	·	7%	4.3%	·
CCOC(=O)CNCCC(=O)c1ccc(Br)cc1	-4%	·	?	-1
Cc1ccc(NC(=O)COc2ccc(C(=O)NCCc3ccccc3)cc2)cc1	·	11%	-2.9%	·
COc1ccc(-c2ccc3c(n2)sc2c(=O)[nH]c(=O)[nH]c23)cc1OC	-12%	·	·	0
O=C(NCCc1ccccc1)c1cc(-c2ccc3c(c2)OCO3)on1	-6%	30%	0.2%	-4
CCn1c(SC2CCOC2=O)nnc1-c1ccc(Cl)cc1 (stereo not drawn)	0%	17%	7.3%	5
COc1cc(/C=C2/C(=N)N3N=C(CC(=O)N4CCOCC4)SC3=NC2=O)ccc1OCc1ccc(F)cc1	-50%	?	?	·
CCn1c(SCC(=O)NCCOC)nc2sc(C)c(C)c2c1=O	1%	·	·	4
COc1ccc(-c2noc(N3CCC(C(=O)Nc4cccc(OC)c4)CC3)n2)cc1	16%	-1%	0.2%	·
COc1ccc(S(=O)(=O)N2CCCC2CNC(=O)C(=O)NCc2ccc(C)cc2)cc1 (stereo not drawn)	·	13%	2.3%	·
Cc1ccccc1-c1nc(CS(=O)(=O)CC(=O)N2CCOCC2)c(C)o1	-5%	0%	-1.9%	·
Cc1cccc(NC(=O)CCC(=O)N/N=C/c2ccc(O)cc2O)c1	5%	30%	3.5%	·
CCCC(=O)Nc1nnc(-c2cccc(OCC)c2)s1	-28%	11%	0.1%	3
O=C(Nc1ccc(N2CCOCC2)cc1)c1ccc([N+](=O)[O-])o1	-32%	?	-2.0%	·
COC(=O)c1ccccc1C(=O)N1CCCC(C(=O)c2cc(F)ccc2F)C1 (stereo not drawn)	-8%	0%	-2.3%	0
COc1ccc(C(=O)COC(=O)c2sc(C)nc2C)cc1Cl	·	-11%	-1.7%	·
O=C(Nc1cc(C(F)(F)F)ccc1Cl)c1cc(C2CC2)on1	-6%	1%	?	1
Cc1c(Cl)cccc1NC(=S)N1CCN(c2ncccn2)CC1	-2%	6%	-1.4%	-3
Fc1cccc(Oc2nc3ccccc3n3cccc23)c1	0%	3%	2.8%	3
COc1ccc(NC(=O)CCNS(=O)(=O)c2cccc(C(C)=O)c2)cc1S(N)(=O)=O	0%	6%	-0.2%	·
Cc1cc(C)cc(NC(=O)c2ccc(S(=O)(=O)N(C)CC3CCCO3)cc2)c1 (stereo not drawn)	6%	5%	0.2%	·
CC(C)CNC(=O)c1c2c(nc3ccccc13)-c1ccccc1CC2	7%	-2%	?	5
CCO/C=C1\C(=O)N(c2ccc(OCC)cc2)C(=O)c2ccccc21	-2%	?	?	-3
O=C(Nc1ccc(N2CCN(C(=O)c3cccs3)CC2)cc1)c1ccccc1F	12%	11%	-4.8%	·
Clc1ccc(N2CCCCCC2)nn1	-10%	1%	-0.4%	8
O=C(CCc1ccccc1)Nc1ncc2c(n1)CCCC2=O	-1%	-2%	-2.2%	6
c1ccc(C2=Nc3c(ccc4ccccc34)C(c3ccncc3)=NN2)cc1	14%	12%	-5.2%	1
O=C(CSC1=NNC(c2ccccn2)S1)Nc1cccc(Cl)c1 (stereo not drawn)	-1%	1%	0.2%	2
Cn1c(N)c(C(=O)COC(=O)COc2cc(Cl)c(Cl)cc2Cl)c(=O)n(C)c1=O	·	-1%	-0.6%	·
CN(C(=O)c1cccn(Cc2ccccc2)c1=O)c1ccccc1	2%	4%	-0.8%	8
COc1ccc(-c2cc(C3CCN(CC(O)C(F)(F)F)CC3)[nH]n2)cc1 (stereo not drawn)	-6%	7%	-0.6%	·
CN(C)S(=O)(=O)c1ccccc1C#N	-6%	-12%	5.0%	-3
Cc1[nH]n(-c2ccccc2)c(=O)c1C=Nc1ccc(S(=O)(=O)N(C)C)cc1	-4%	2%	0.2%	3
O=C(NCC1CCCO1)c1cccc(S(=O)(=O)NCc2ccccc2)c1 (stereo not drawn)	1%	1%	-0.9%	-21
Cc1ccc(C(=O)N2CCN(c3cccc(C)c3C)CC2)o1	12%	29%	5.9%	·
O=C(NCc1ccccc1F)c1cc(=O)[nH]c2ccccc12	-4%	-2%	0.2%	·
O=C1C(=O)N(Cc2cccnc2)C(c2ccc(Br)cc2)/C1=C(\O)c1ccc2c(c1)OCCO2 (stereo not drawn)	0%	-9%	3.5%	·
Cc1nn(Cc2ccc(C(=O)N3CCCC3)o2)c(C)c1[N+](=O)[O-]	-6%	0%	-0.3%	·
O=C(Nc1ccc(Oc2ccc3ccccc3c2)cc1)c1ccco1	10%	-5%	1.5%	-2
Nc1sc2c(c1C(=O)NC1CC1)CCCC2	·	21%	-4.8%	·
CSc1ccccc1NC(=O)COc1ccccc1Cl	-43%	-1%	4.7%	-21
Cc1ccc(NC(=O)c2cc3ccccc3o2)cc1	-44%	-9%	0.5%	·
COc1cc(NC(=S)N2CCc3ccccc3C2)cc(OC)c1	-25%	10%	-0.6%	5
CCCn1c(=O)c2ccccc2n2c(SCC(=O)Nc3cc(C)on3)nnc12	-1%	4%	-3.2%	-2
Cc1cc(C)cc(NC(=O)CSc2nc(=O)n(CCCN3CCOCC3)c3c2CCCC3)c1	·	?	-0.1%	·
CC1CN(S(=O)(=O)c2cccc3nsnc23)CC(C)O1 (stereo not drawn)	-6%	2%	9.9%	3
O=C(NCCCCc1ccccc1)C1CC(c2cccc(F)c2)=NO1 (stereo not drawn)	1%	5%	3.3%	-4
CCCCOc1ccc(NC(=O)c2cnc(C)cn2)cc1	1%	37%	2.0%	-6
CS(=O)(=O)N1CCC(C(=O)N2CCN(c3ccc(F)cc3)CC2)CC1	-2%	0%	-1.2%	-3
CCN1C(=O)c2cccc3c(NC(=O)C4CCCCC4)ccc1c23	0%	-11%	?	-13
COc1ccc(CC(=S)NCCc2ccccc2)cc1	-26%	-3%	-0.3%	·
CN1CCN(C(=O)/C(=C/c2ccccc2Cl)NC(=O)c2ccccc2)CC1	-2%	-1%	-3.8%	·
CCN1CCN(CCCN(Cc2cccs2)C(=S)Nc2ccccc2C)CC1	3%	10%	-0.9%	-13
Cc1ccc2nc(SCc3nnc(-c4cccs4)o3)[nH]c2c1	-12%	-15%	-2.5%	-7
COC1(OC)N=C(N)C2(C#N)C(c3ccc4c(c3)OCO4)C12C#N (stereo not drawn)	12%	?	?	3
O=Cc1ccc(-c2ccc(C(=O)O)cc2)o1	-12%	-13%	9.5%	3

Next records follow:
SMILES	miR-21 reporter	Rango dissoc inh	Rango complex inh	GLA inh pH 4.5
CCC(C)(C)NC(=O)CN(C(=O)CCC(=O)Nc1ccccn1)c1ccc(F)c(Cl)c1	-1%	7%	2.5%	-3
O=C(O)Cn1c(-c2ccccc2)nc2ccccc21	-3%	1%	-4.0%	0
COc1cccc(CN(C)C(=O)c2ccccc2Sc2ccccc2C#N)c1OC	-18%	8%	-3.0%	·
Nc1ccc(C(=O)OCC(=O)Nc2ccc3c(c2)OCO3)cc1[N+](=O)[O-]	-16%	-6%	1.8%	-2

Some of the compounds tested; the hit share may differ from the screen's.
